Screening data: PubChem BioAssay, Broad Institute
T cruzi repl: blocks replication of Trypanosoma cruzi. T. cruzi beta-gal in NIH3T3, luminescence, 90 h. inhibition, % (test concentration not listed). 1.4% of 300,000 active. AID 1885;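 active = mean inhibition across valid replicates above about 55%, limit read from the data; inconclusive = mean below that limit but half or more replicates reach it; inactive = mean below it, under half of replicates reach it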;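 also: signal also drops with host cell toxicity which is not excluded here; 0% = plate median of DMSO wells and 100% = zero luminescence signal; higher percent means less beta-gal luminescence so fewer parasites; stock transfer was 50 nL into about 50 µL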
ALR H2O2 inh: blocks human ALR sulfhydryl oxidase activity; P55789; purified ALR, DTT oxidation, H2O2 HRP-luminol luminescence; inhibition, % (test concentration not listed); 3.8% of 290,000 active; AID 485317;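 active = mean and each replicate at 75% or more; inconclusive = only one of the two met; inactive = neither met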;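 also: stock transfer was 7.5 nL into about 7.5 µL; 0% = neutral wells and 100% = wells with inactivated enzyme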
Target sequence (P55789 whole entry, looked up): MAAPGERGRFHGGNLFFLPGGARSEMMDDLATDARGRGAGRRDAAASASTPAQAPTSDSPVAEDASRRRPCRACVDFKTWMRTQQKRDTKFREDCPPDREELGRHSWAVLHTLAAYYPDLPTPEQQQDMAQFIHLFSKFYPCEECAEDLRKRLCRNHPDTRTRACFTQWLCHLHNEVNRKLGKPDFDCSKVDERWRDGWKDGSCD
rRNA inh HTS: inhibitors of bacterial rRNA selective over humanized ribosomes; E. coli WT GFP vs humanized-ribosome RFP mutants, fluorescence, 24 h; active compounds read low; DMSO median 0, no signal -100; GFP signal change (wild-type ribosome), % (test concentration not listed); 1.6% of 350,000 active;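 active = significant combined selectivity score with lowered wild-type GFP, culture density cut under 30%, mutant RFP and density less affected; inactive = any of these conditions unmet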; also: one replicate is shown; some compounds called inactive have numbers as strong as hits
RanGTP-Imp inh: disruptors of Ran-importin-beta complex formation – biochemical, FRET, CFP-Ran, YFP-importin-beta, homogeneous, primary screen | cell-free CFP-Ran/YFP-importin-beta FRET ratio | inhibition, % (test concentration not listed) | 1.1% of 300,000 active;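 active = most replicates above 15%; inconclusive = exactly half above 15%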;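 also: 0% = DMSO wells and 100% = Ran loaded with GDP instead of GTP; wells of about 40 µL received 100 nL stock; the first replicate is given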
Beta cell apopt: beta cell apoptosis inhibition; INS-1E cytokine-induced death, ATP luminescence, 48 h; percent of positive-control rescue, neutral wells zero; protection from apoptosis, % (test concentration not listed); 0.8% of 300,000 active;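 active = all replicates at 75% or more, or half of them and the mean; inconclusive = half reach 75% but not the mean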;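 also: 0% = cytokine-treated negative control wells and 100% = positive control rescue; higher means more ATP so stronger rescue from cytokine killing; wells of about 40 µL received 100 nL stock; the first replicate is given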
MLL AF4-AF9 inh: MLL-AF4/AF9 protein interaction inhibition. P42568. AlphaScreen, biotin-AF4 peptide binding to FLAG-AF9. inhibition, % at 10 µM. 0.47% of 350,000 active. AID 651704;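 active = every replicate reaching a set inhibition limit, whatever the replicate mean, cut at about 25% in these data; inconclusive = mean inhibition reaches that limit but some replicates miss it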;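 also: 0% = plate neutral control median and 100% = total signal loss; the record names both 10 and 1 µM as test concentration; the first replicate is given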
Target sequence (P42568 whole entry, looked up): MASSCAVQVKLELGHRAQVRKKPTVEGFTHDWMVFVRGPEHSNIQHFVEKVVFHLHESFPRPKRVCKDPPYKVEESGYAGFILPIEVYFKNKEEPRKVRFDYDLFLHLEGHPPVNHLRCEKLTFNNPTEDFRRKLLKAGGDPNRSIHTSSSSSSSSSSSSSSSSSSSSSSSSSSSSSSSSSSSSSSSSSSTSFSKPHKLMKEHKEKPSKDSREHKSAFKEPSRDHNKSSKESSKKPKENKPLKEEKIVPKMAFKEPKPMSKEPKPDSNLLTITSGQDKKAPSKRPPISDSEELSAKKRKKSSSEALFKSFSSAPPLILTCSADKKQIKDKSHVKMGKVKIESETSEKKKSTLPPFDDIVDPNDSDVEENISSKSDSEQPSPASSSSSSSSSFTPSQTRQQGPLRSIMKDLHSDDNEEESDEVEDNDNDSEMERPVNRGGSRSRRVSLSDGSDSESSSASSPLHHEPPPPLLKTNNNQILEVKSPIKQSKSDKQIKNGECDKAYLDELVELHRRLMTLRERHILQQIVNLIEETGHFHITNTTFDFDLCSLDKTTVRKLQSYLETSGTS
Calb FLC: C. albicans growth modulation with fluconazole. C. albicans CaCi-2 (fluconazole-resistant clinical isolate) + fluconazole, Alamar Blue growth, 48 h. growth inhibition, % (concentration not given with the values). 0.57% of 300,000 active. AID 1979;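 active = most replicates above 75%; inconclusive = exactly half above 75%; inactive = most below 75%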;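 also: all wells also contain fluconazole at 8 µg/ml as a sub-toxic cotreatment; 0% = median of DMSO wells and 100% = median of geldanamycin control wells; wells of about 8 µL received 7.5 nL stock; the first replicate is given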
FGF22 binding: binders of recombinant human FGF22 by thermal shift. 1.5% of 340,000 active. SYPRO orange fluorescence; percent of sucrose octasulfate shift, DMSO zero. calls only at 9.99 µM;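 active = melting point raised past a set limit in the mean and every replicate; inconclusive = no clear call; three in four hits are not shown here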
Target sequence (Q9HCT0 whole entry, looked up): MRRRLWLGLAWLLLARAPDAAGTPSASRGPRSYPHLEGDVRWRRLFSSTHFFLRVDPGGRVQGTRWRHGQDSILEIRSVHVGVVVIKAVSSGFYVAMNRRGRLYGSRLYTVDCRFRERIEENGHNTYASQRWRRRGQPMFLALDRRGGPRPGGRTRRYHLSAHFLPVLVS
rRNA inh HTS OD600: second read-out of rRNA inh HTS, no call of its own (marks repeat the call); OD600 change, %; measured here: OD600 growth;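 optical density of the mix in the first replicate; 0 = DMSO median and -100 = no signal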
rRNA inh HTS RFP: second read-out of rRNA inh HTS, no call of its own (marks repeat the call); RFP signal change, %; measured here: RFP humanized mutant strains;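 first replicate; 0 = DMSO median and -100 = no signal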
Numbers without * were called inactive; i = inactive; ? = inconclusive; . = not tested or not shown. A portion of the library; count on the stated rates, not on these rows.

SMILES | T cruzi repl | ALR H2O2 inh | rRNA inh HTS | rRNA inh HTS OD600 | rRNA inh HTS RFP | RanGTP-Imp inh | Beta cell apopt | MLL AF4-AF9 inh | Calb FLC | FGF22 binding
Cc1cc(NS(=O)(=O)c2ccc(NC(=O)NC3CCCCC3)cc2)no1 | -9 | 17 | -1 | 1 | 4.7 | 2.7 | -9 | . | 6 | .
Cc1ccc(C(CC(=O)NCCCN(C)C)c2ccc(OC(C)C)cc2)cc1 (stereo not given) | 21 | -5 | -11 | 0 | 4.1 | 1.5 | -7 | -14 | 15 | i
CCOc1ccccc1NC(=O)COC(=O)Cc1cccs1 | -2 | 6 | 0 | -1 | -0.7 | -1.2 | -4 | -0.1 | -8 | i
CC(C)OCc1c(C(=O)Nc2nccs2)oc2ccccc12 | 6 | -1 | 7 | -1 | -8.3 | 3.7 | 3 | 3.7 | 34 | i
COc1ccccc1NC(=O)c1ccc(N)cc1 | -5 | -12 | 15 | 12 | 6.0 | -0.4 | -5 | 3.9 | 3 | i
O=C(Nc1ccc(F)cc1)C1CCCCC1 | -21 | 10 | . | . | . | 5.4 | 0 | . | 6 | .
COc1ccc(OC)c(NC(=O)COC(=O)Cc2ccsc2)c1 | . | -1 | 1 | -4 | -0.9 | . | 0 | -1.0 | . | i
CCOC(=O)C1Nc2ccccc2C2C(O)C(O)CC12 (stereo not given) | -20 | . | 10 | 8 | 11 | -73 | -4 | 26* | -2 | i
CCCNC(=S)Nc1cccc(C(F)(F)F)c1 | 3 | 14 | . | . | . | -0.6 | -4 | . | 11 | .
CCO/C=N/c1c(C#N)c2c(c(=S)n1C)COC(C)(C)C2 | -4 | 3 | . | . | . | -3.4 | -6 | . | -3 | .
OCC(O)C(O)C(O)C(O)C1NCCS1 (stereo not given) | 5 | -3 | 7 | 3 | -3.1 | 1.8 | -1 | . | 0 | .
C=CCNC(=O)NC(=O)COC(=O)[C@H](C)NS(=O)(=O)c1c(C)c(C)cc(C)c1C | -4 | 0 | 5 | -1 | 12 | 6.4 | -2 | 0.7 | -3 | i
CSc1nnc2c(n1)OC=Nc1ccccc1-2 | -10 | -6 | . | . | . | 0.7 | 4 | . | -11 | .
Cc1c(Cl)cccc1NCC(=O)Nc1ccc(Cl)cc1F | 2 | 1 | . | . | . | 2.1 | -7 | . | -15 | .
Cc1ccnc(SCc2cc(=O)c(OC(=O)c3cccs3)co2)n1 | -6 | 7 | -22 | -37 | -15 | 7.7 | -7 | -2.9 | 8 | i
CC1CCCC(NC(=O)C2CCN(S(=O)(=O)N3CCCCC3)CC2)C1C (stereo not given) | -5 | -7 | 12 | 3 | 1.1 | -0.9 | 0 | -4.3 | -22 | i
COc1ccc(C(=O)OCC(=O)Nc2c(C)n(C)n(-c3ccccc3)c2=O)cc1 | . | . | 0 | 5 | -2.1 | . | 3 | 1.6 | . | i
Cc1c(C#N)c2ccccc2n1C | 1 | 7 | 0 | -8 | 1.4 | 0.3 | -1 | . | 0 | i
O=C(Cc1c[nH]c2ccccc12)NNC(=O)c1ccccc1 | -2 | 0 | -12 | -12 | 3.2 | 4.2 | 5 | 1.1 | -2 | i
Cc1ccc(C(=O)N(c2ccccn2)C(C)c2ccco2)cc1 (stereo not given) | -1 | -4 | . | . | . | -2.8 | -3 | . | -4 | .
CCOc1ccc(N(C(=O)CNC(=O)c2ccco2)C(C(=O)NC2CCCC2)c2ccncc2)cc1 (stereo not given) | -14 | 1 | 12 | 14 | 8.0 | 4.4 | 0 | 0.1 | 34 | i
O=C(c1ccco1)N1CCN(Cc2nnnn2C2CCCCC2)CC1 | -3 | -5 | -2 | -1 | 1.2 | -2.2 | 1 | -2.7 | -1 | i
O=Cc1ccccc1-c1cn(CN2C(=O)c3ccccc3C2=O)nn1 | -7 | -6 | -1 | 14 | -1.9 | -2.9 | -1 | -5.0 | 5 | i
Cc1ccc(-c2c3c(=O)n(C)c(=O)n(C)c3cn2Cc2ccccc2)cc1 | 25 | -16 | . | . | . | -0.2 | -4 | . | -11 | .

Given field by field: part of the list above
> O=C(c1ccco1)N1CCN(Cc2nnnn2C2CCCCC2)CC1
  T cruzi repl: -3; ALR H2O2 inh: -5; rRNA inh HTS: -2; rRNA inh HTS OD600: -1; rRNA inh HTS RFP: 1.2; RanGTP-Imp inh: -2.2; Beta cell apopt: 1; MLL AF4-AF9 inh: -2.7; Calb FLC: -1; FGF22 binding: i
> O=Cc1ccccc1-c1cn(CN2C(=O)c3ccccc3C2=O)nn1
  T cruzi repl: -7; ALR H2O2 inh: -6; rRNA inh HTS: -1; rRNA inh HTS OD600: 14; rRNA inh HTS RFP: -1.9; RanGTP-Imp inh: -2.9; Beta cell apopt: -1; MLL AF4-AF9 inh: -5.0; Calb FLC: 5; FGF22 binding: i
> Cc1ccc(-c2c3c(=O)n(C)c(=O)n(C)c3cn2Cc2ccccc2)cc1
  T cruzi repl: 25; ALR H2O2 inh: -16; rRNA inh HTS: .; rRNA inh HTS OD600: .; rRNA inh HTS RFP: .; RanGTP-Imp inh: -0.2; Beta cell apopt: -4; MLL AF4-AF9 inh: .; Calb FLC: -11; FGF22 binding: .

Following part
SMILES | T cruzi repl | ALR H2O2 inh | rRNA inh HTS | rRNA inh HTS OD600 | rRNA inh HTS RFP | RanGTP-Imp inh | Beta cell apopt | MLL AF4-AF9 inh | Calb FLC | FGF22 binding
Cc1cccc(NC(=O)NNC(=O)c2nn(C)cc2Br)c1 | 10 | 36 | -5 | 4 | -0.7 | 1.3 | -3 | -2.1 | -29 | i
Oc1ccc(C(c2nnnn2C2CCCCC2)N2CCOCC2)cc1 (stereo not given) | -3 | -4 | -2 | -2 | 0.4 | -1.7 | -1 | -4.9 | 1 | i
CC(C)N1CC23C=CC(O2)C(C(=O)OCc2ccccc2)C3C1=O (stereo not given) | -8 | -3 | 20 | 17 | 3.6 | 6.1 | -6 | -1.0 | -2 | i
Fc1ccc(-n2c(-c3ccc4c(c3)OCO4)n[nH]c2=S)cc1Cl | -5 | 96* | . | . | . | 5.1 | 5 | . | 25 | .
c1ccc(-c2nc(N3CCNCC3)nc3ccccc23)cc1 | 1 | -5 | . | . | . | 13 | 5 | . | 6 | .
COc1cccc(CNC(=O)c2cc(S(=O)(=O)N3CCOCC3)cn2C)c1 | -1 | 4 | 9 | 5 | -0.9 | -0.6 | -4 | -13 | 3 | i
CCOC(=O)C1(CCOc2ccccc2)CCN(Cc2cc(OC)c(O)cc2Cl)CC1 | 10 | . | -24 | -41 | -3.5 | 4.6 | . | 7.7 | -14 | i
Cc1ccccc1NC(=O)COc1ccc2c(c1)OC(C)(C)CC2=O | -1 | 5 | 18 | 7 | 2.1 | -3.3 | . | -4.4 | 6 | i
Cn1ncc(Cl)c1C(=O)Nc1nnc(C2CC2)s1 | -2 | 0 | 4 | 6 | -2.8 | 6.0 | -3 | -1.3 | 22 | i
COCCCN(C(=S)NC(=O)C12CC3CC(CC(C3)C1)C2)c1c(N)n(Cc2ccccc2)c(=O)[nH]c1=O | 16 | . | -6 | 3 | -4.2 | 4.0 | -4 | -1.3 | 4 | i
O=C(CSc1n[nH]c(-c2ccccc2)n1)c1ccc(O)c(O)c1 | -66 | 99* | . | . | . | 3.0 | . | . | 1 | .
O=C(CCCc1nc(-c2ccc(Cl)cc2)no1)NC1CCCC1 | -64 | -1 | 13 | 15 | 5.5 | 5.6 | 107* | -2.4 | -14 | i
CS(=O)(=O)N1CC2CCCN2c2ccc(C(F)(F)F)cc21 (stereo not given) | 6 | 3 | -33* | -9.4* | 4.7* | 4.3 | -2 | -0.2 | 11 | i
Cn1nc(C(=O)Nc2cccc(Cl)c2)cc1C(=O)Nc1cccc(Cl)c1 | 37 | -11 | 9 | 18 | 8.7 | 2.7 | 16 | -3.3 | 0 | i
O=C(NCC1CCCO1)c1cc(C(=O)C2CC2)c[nH]1 (stereo not given) | 7 | -1 | . | . | . | 0.7 | -1 | . | -4 | .
COc1cc(SC)ccc1C(=O)OC1CCOC1=O (stereo not given) | 4 | 14 | . | . | . | -2.3 | -7 | . | 0 | .
O=C(COC(=O)C1CCCCC1)Nc1ccc(N2CCCCC2)cc1 | 1 | 88* | . | . | . | -2.2 | 2 | . | -11 | .
Cc1noc(C)c1COc1ccc(C(=O)N2CCN(S(=O)(=O)c3cccc(F)c3)CC2)cc1 | . | -8 | -6 | -11 | 5.5 | . | -4 | -4.6 | . | .
Cc1oc(-c2ccccc2Cl)nc1CS(=O)CC(=O)NC1CC1 (stereo not given) | -1 | 99* | 5 | 5 | -3.7 | -4.3 | -3 | -1.5 | -3 | i
COc1ccc(OCCn2ccnc2C)cc1 | -16 | 3 | 7 | 6 | 0.4 | 5.1 | . | -18 | -5 | i
O=C(Nc1ccnn1C1CCN(Cc2ccc(CO)o2)CC1)c1ccc2c(c1)OCO2 | -8 | -7 | 20 | 16 | 6.8 | -0.1 | -5 | 2.9 | -3 | i
COc1ccccc1CN(C(=O)c1ccco1)C(C(=O)NC1CCCC1)c1ccncc1 (stereo not given) | 0 | -3 | . | . | . | 3.4 | -4 | . | -3 | .
COc1ccc(OC)c(NC(=O)Nc2cc(NC(=O)Nc3cc(OC)ccc3OC)c(C)nc2C)c1 | -6 | -11 | . | . | . | -0.9 | -5 | . | -3 | .
COc1ccc(C(=O)Nc2ccnn2C2CCN(Cc3cccnc3)CC2)cc1 | -2 | -2 | 6 | 11 | 0.1 | 0.4 | -2 | 3.0 | -2 | i
O=C(Nc1nc(-c2cccc([N+](=O)[O-])c2)cs1)C(c1ccccc1)c1ccccc1 | 53 | 0 | . | . | . | ? | 27 | . | 8 | .
CO/N=C/C(NC(=O)c1ccc(C(F)(F)F)cc1)C(=O)OC (stereo not given) | -4 | . | 12 | 3 | 5.5 | 1.7 | 4 | -3.0 | -17 | i
O=C1c2ccccc2C(=O)N1Cc1cccnc1 | 2 | -7 | 15 | 7 | 3.2 | -5.0 | 4 | -23 | 32 | i
NS(=O)(=O)c1ccc(C(=O)O)cc1 | 0 | . | . | . | . | -0.3 | -6 | 1.3 | . | i
Cc1nc2ccc(S(=O)(=O)NCC(=O)NCc3ccc4c(c3)OCO4)cc2s1 | -1 | -8 | . | . | . | 0.2 | 1 | . | -3 | .
C=CCn1c(CNS(=O)(=O)c2ccc(Br)cc2)nnc1SC | -25 | -9 | 8 | 6 | 1.5 | -1.6 | 3 | -3.8 | -6 | i
CC(C)CCNC(=O)[C@H](CSCc1ccccc1)N1Cc2ccccc2C1=O | 10 | -86 | -7 | -18 | 0.4 | 3.5 | -2 | -7.4 | -5 | i
CCn1ncc(Br)c1C(=O)Nc1cc(C)ccc1F | -22 | -4 | . | . | . | 0.2 | 4 | . | 1 | .
O=C(CC1C(=O)NCCN1Cc1ccccn1)NCCc1ccccc1F (stereo not given) | -10 | -21 | 14 | 10 | 8.3 | -0.1 | 0 | 0.3 | 1 | i
COc1cc(C2/C(=C(/O)c3ccccc3)C(=O)C(=O)N2c2ccccn2)ccc1O (stereo not given) | -8 | 24 | 9 | 12 | -4.4 | 0.4 | -2 | -0.7 | 4 | i
Cc1cccc(C)c1NC(=O)CN(C)S(=O)(=O)c1ccc(-c2ccc(=O)[nH]n2)s1 | 0 | -1 | -9 | -2 | -1.1 | 0.5 | 3 | 4.1 | 18 | i
